# Bioassay records: PubChem, National Center for Advancing Translational Sciences (NCATS)
# TRPV1 potentiator: human TRPV1 potentiation; Q8NER1; TRPV1-expressing cells, Fluo-8 calcium influx, capsaicin EC20 potentiation; host cell line not named in the record; control for the full effect not named in the record; potentiation, % at 8.33 µM; 320,000 tested, 0.02% active; AID 540277; active means potentiation above 80%; inconclusive means 30% to 80%; inactive means below 30%; further: 0% is about no effect
# Target sequence (Q8NER1 whole entry, looked up): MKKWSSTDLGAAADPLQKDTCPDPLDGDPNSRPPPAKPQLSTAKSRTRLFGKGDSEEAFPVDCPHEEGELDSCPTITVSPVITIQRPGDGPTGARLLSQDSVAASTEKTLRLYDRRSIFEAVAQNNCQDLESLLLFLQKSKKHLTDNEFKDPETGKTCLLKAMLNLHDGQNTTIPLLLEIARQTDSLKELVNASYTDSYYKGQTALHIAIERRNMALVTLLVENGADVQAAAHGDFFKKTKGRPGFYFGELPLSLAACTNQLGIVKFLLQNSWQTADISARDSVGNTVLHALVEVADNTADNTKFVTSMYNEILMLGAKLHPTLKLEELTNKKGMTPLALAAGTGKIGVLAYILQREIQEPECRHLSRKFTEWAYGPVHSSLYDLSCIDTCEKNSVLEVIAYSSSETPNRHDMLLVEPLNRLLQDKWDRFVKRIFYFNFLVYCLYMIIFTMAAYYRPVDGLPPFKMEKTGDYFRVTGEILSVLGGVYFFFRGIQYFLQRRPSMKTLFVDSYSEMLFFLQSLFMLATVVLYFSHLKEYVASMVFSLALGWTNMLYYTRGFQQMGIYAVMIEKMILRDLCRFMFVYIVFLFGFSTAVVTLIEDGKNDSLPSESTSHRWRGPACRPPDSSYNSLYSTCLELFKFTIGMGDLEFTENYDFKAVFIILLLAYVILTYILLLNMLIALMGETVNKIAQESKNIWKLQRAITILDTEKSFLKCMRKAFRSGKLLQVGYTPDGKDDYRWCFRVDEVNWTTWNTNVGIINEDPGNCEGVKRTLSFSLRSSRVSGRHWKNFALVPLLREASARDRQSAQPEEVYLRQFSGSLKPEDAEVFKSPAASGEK
#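 Cells expressing TRPV1 were dye-loaded with Fluo-8 and read kinetically: 10 s baseline, 3 min after compound (agonist portion), then 2 min after EC20 capsaicin (allosteric enhancer portion). Calcium-bound dye fluorescence at 480/520 nm.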
# Menin MLL FP FL: displaces fluorescein MLL peptide from human menin. Fluorescence polarization, fluorescein-MLL peptide displacement from menin. FP activity change, % at 61.4 µM. 290,000 tested, under 10 active; inconclusive = falling polarisation curve, or a change in total fluorescence; inactive = total fluorescence flat and polarisation flat or rising; no compound was filed as active; the % refers to the polarisation; negative = inhibition;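 further: % of control where 0% means no effect; inhibitors lower the polarisation; unlabelled MLL peptide was the positive control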
# gsp antagonist: antagonists of gsp mutant (McCune-Albright syndrome). gsp-mutant cells, cAMP HTRF, 30 min; control for the full effect not named in the record. 340,000 tested, 0.4% active. Potency, µM (doses to about 76.9 µM), for the others: at the highest dose activity change, negative = inhibition, actives largely listed as inhibitors; active = falling curve of any shape with a large fitted effect; inconclusive = falling curve, mostly with a smaller effect; inactive = flat or rising curve; cell line not stated here;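 further: intracellular cAMP measured with PDE inhibitor Ro 20-1724 present during compound exposure; potency means the concentration at half of the fitted maximal effect; on the % scale 0 is the no-effect control and ±100 the full control effect; nearly all actives have a fitted effect of over 65% in size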
#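 G418-selected cells were plated in DMEM/10% FBS for 16-24 h at 37C, then treated with compounds plus the PDE inhibitor […] (300 uM solution added) for 30 min at 37C. Intracellular cAMP was measured by HTRF after 30 min lysis at room temperature.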
# gsp agonist: agonists of gsp mutant (McCune-Albright syndrome). gsp mutant cells, cAMP HTRF, 30 min; control for the full effect not named in the record. Potency, µM (top dose mostly 76.9 µM), for inactives: at the highest dose activation (cAMP increase), most hits filed as activators. 340,000 tested, 0.13% active. AID 624287; active = well fitted activation curve with a large enough effect; inconclusive = small, poorly fitted or top-dose-only effect, or another doubt; inactive = no such curve, though single readings can be large or run the other way; cell line not stated here;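 further: phosphodiesterase inhibitor Ro 20-1724 added with compounds to block cAMP breakdown; potency means the concentration at half of the fitted maximal effect; nearly all actives have a fitted effect of over 60% in size; about a fifth of the inactives were tested at one dose only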
#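 Cells in DMEM/10% FBS with G418 were pretreated with compounds in DMSO plus […] (300 uM stock) for 30 min at 37C. cAMP was measured by HTRF (cAMP-d2 plus anti-cAMP antibody-K) after 30 min at room temperature.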
# CtBP-E1A inh: blocks the CtBP interaction with E1A | AlphaScreen GST-E1A/His-CtBP binding, 1536-well; hits give low values; control for the full effect not named in the record | AID 651724 | 340,000 tested, 0.49% active | activity change, % (test concentration not listed); in the data active means activity change below about -65%; inconclusive means about -30% to -65%; inactive means above about -30%; further: on the % scale 0 is the no-effect control and ±100 the full control effect; compound concentration not given in the record
#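 In 5 uL wells, 23 nL compound meets equimolar GST-E1A and His-CtBP (5X stock 125 nM each) for 2 h, 37 °C. Beads (5X, 50 ug/mL) then 1 h, 37 °C, dark.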
# ClpP mod: qHTS Assay for Activators of ClpP. ATP-dependent Clp protease proteolytic subunit (Bacillus subtilis (strain 168)), P80244. purified B. subtilis ClpP, FRET peptide cleavage, 20 min. Potency, µM (highest dose often 57.5 µM), without a hit: at the top dose activity change, negative = active. 340,000 tested, 1.9% active; active = well fitted falling curve with a large enough effect; inconclusive = small, poorly fitted or top-dose-only effect; inactive = no such curve, though single readings can be large or run the other way; further: potency means the concentration at half of the fitted maximal effect; the source files actives as falling curves though it sought activators and does not explain the sign; nearly all actives have a fitted effect of over 65% in size; many hits overshoot -100%
# Target sequence (P80244 whole entry, looked up): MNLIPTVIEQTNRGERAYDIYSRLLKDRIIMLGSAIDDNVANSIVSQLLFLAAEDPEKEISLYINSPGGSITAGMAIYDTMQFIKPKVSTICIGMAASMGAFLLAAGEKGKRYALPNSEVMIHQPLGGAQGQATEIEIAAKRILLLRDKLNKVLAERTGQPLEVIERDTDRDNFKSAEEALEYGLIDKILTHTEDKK
#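 Buffer: 100 mM Tris/HCl pH8, 100 mM KCl, 0.05% low protease BSA, 2.5% glycerol, 0.01% Tween-20. ClpP 10 microg/mL final; 20 min RT; delta FRET normalized to ADEP and DMSO controls.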
# Sfp PPTase inh: Sfp phosphopantetheinyl transferase inhibition. Q9F4F7. Biochemical Sfp PPTase activity, qHTS. Potency, µM, for the others: max response, negative = inhibition, usual class: inhibitors. 310,000 tested, 3.5% active. AID 1490; active means well fitted inhibition curve with a large enough effect; inconclusive means small, poorly fitted or top-dose-only effect, or another doubt; inactive means no such curve, though single readings can be large or run the other way;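 further: the enzyme is Sfp with the accession as filed and its product quenches rhodamine fluorescence; potency means the concentration at half of the fitted maximal effect; 0% = enzyme reaction without inhibitor and -100% = no enzyme wells; top concentration of the series not given in the record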
#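 With Hepes-Na pH 7.6 buffer containing 10 mM MgCl2, Sfp (15 nM) modified BHQ-2-YbbR (12.5 uM) using rhodamine-CoA (5 uM). Two reads 30 minutes apart at 525/598 nm yielded each well's rate.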
# Starred values were filed as active, the others as inactive; ? = inconclusive; . = not tested or not shown; & = joins results of further samples; [ ] = remark or other dose.
SMILES	TRPV1 potentiator	gsp antagonist	CtBP-E1A inh	Menin MLL FP FL	Sfp PPTase inh	gsp agonist	ClpP mod
CC[C@@H](C)C(NC(=O)OC(C)(C)C)c1cn([C@@H](CCC(=O)OC(C)(C)C)C(=O)N2CCN(C(=O)OC(C)(C)C)CC2)nn1 (some centres undefined)	-12	3%	8	-3.9	-4%	?	0.1%
CCOC(=O)n1c(=O)oc2ccc(Cl)cc21	-2	4%	-26	1.0	14%	0%	-4.0%
Cc1ccc(C(=O)N2CCCC(N(C)Cc3ccccc3)C2)s1 (centres undefined)	0	6%	-2	.	11%	?	22µM*
COc1ccc(C(=O)OCC(=O)NC(C)CCc2ccccc2)cc1 (centres undefined)	15	?	-10	-0.9	5%	-11%[15.4 µM]	-2.0%
CC(C)CC1NC(=O)N(CC(=O)N2CCN(S(=O)(=O)c3ccc(Cl)cc3)CC2)C1=O (centres undefined)	-5	21%	5	0.3	1%	0%	2.6%
COc1cc2c(cc1OC)C(SC)=NC(C)(C)C2	0	24%	-2	2.5	-1%	-28%	23%
COc1ccc(NC(=O)c2ccc(COCC(F)(F)C(F)F)cc2)cc1OC	11	-14%	-4	4.5	-1%	7%	0.6%
CC1CCCN(S(=O)(=O)c2ccc(NC(=O)C3CCN(C(=O)c4ccco4)CC3)cc2)C1 (centres undefined)	0	-4%	1	-4.9	8%	0%	.
C1CC2CN(c3nc4nonc4nc3N3CCSCC3)CCN2C1 (centres undefined)	-8	.	2	-12	6%	-19%[15.4 µM]	.
CCS(=O)(=O)Nc1ccc(Cc2ccc(NS(=O)(=O)CC)cc2)cc1	20	-18%	6	1.8	-30%	-16%	-0.4%
C[C@H](CO)N1C[C@H](C)[C@@H](CN(C)S(=O)(=O)c2cccs2)Oc2c(NS(=O)(=O)c3ccccc3)cccc2C1=O	.	-12%	0	.	.	.	-1.6%
C[C@@H]1CCCCO[C@H](CN(C)Cc2ccc(Cl)c(Cl)c2)[C@@H](C)CN([C@H](C)CO)C(=O)c2cc(N(C)C)ccc2O1	.	.	-27	.	.	-4%	-6.5%
CCCCCC(=O)N/N=C/c1ccc([N+](=O)[O-])o1	5	0%	-10	0.8	-2%	-34%[inhibitor]	-5.3%
CCC(CC)c1nnc(NC(=O)CSCc2c(C)noc2C)s1	.	.	0	.	.	19%	-4.3%
O=C(CSc1ccc(-c2ccccn2)nn1)c1ccccc1	-15	3%	-88*	-1.4	-43%	-17%[15.4 µM]	.

# Next part:
SMILES	TRPV1 potentiator	gsp antagonist	CtBP-E1A inh	Menin MLL FP FL	Sfp PPTase inh	gsp agonist	ClpP mod
Cc1ccc(C2CC(c3cccs3)=NN2S(=O)(=O)c2ccc(C)cc2)cc1 (centres undefined)	-6	-3%	3	3.1	-6%	2%[15.4 µM]	-0.8%
CCOc1cccc(CN2CCC(CCC(=O)NC3CC3)CC2)c1O	-5	4%	.	0.3	4%	2%	1.3%
COc1cccc(CSc2ccc(S(=O)(=O)N3CCOCC3)cc2C(=O)NCC2CCCO2)c1OC (centres undefined)	-6	-8%	-8	-5.0	-26%	9%[15.4 µM]	.
O=C(N/N=C1\C(=O)c2cccc3cccc1c23)c1ccc(O)cc1	10	?	-2	-1.5	-12%	0%[15.4 µM]	-0.4%
O=C(O)CCn1c(=O)c2ccccc2c2ccccc2c1=O	-4	13%	-1	1.3	17%	-10%	-8.1%
O/N=C(/c1ccc(Cl)cc1)C1CC1c1ccccc1 (centres undefined)	-4	3%	8	2.4	10%	-48%[inhibitor][15.4 µM]	.
CC(=O)C[C@H](O)CC(=O)[C@@H]1OC(=O)CCCCCc2ccccc21	.	8%	9	.	.	.	-2.8%
CN(CC(=O)Nc1ccccc1Oc1ccccc1)Cc1ccccc1F	-6	-8%	33	1.8	?	10%	1.0%
CN(C)c1nc(SCC#N)nc(N2CCOCC2)n1	-51	-2%	3	2.7	19%	21%	0.6%
O=C(Nc1cc(Cl)ccc1N1CCCC1)C1=NN(c2ccccc2)C(=O)CC1	12	?	.	.	-8%	-35%[inhibitor]	-3.6%
COc1cc(Cl)c(C)cc1NC(=O)COC(=O)C(NS(=O)(=O)c1ccc(Cl)cc1)C(C)O (centres undefined)	?	-32%	1	3.4	-21%	-1%[15.4 µM]	1.4%
COc1ccccc1CCNC(=O)C1CCC(=O)N(Cc2cccc(F)c2)C1 (centres undefined)	-7	0%	4	-5.7	12%	0%	2.2%
COc1cccc(Nc2nc3ccccc3nc2NS(=O)(=O)c2ccc(NC(C)=O)cc2)c1	1	-20%	-3	.	3%	-23%	-26%
COc1ccc(CCNC(=O)CN(c2ccccc2)S(C)(=O)=O)cc1OC	-4	0%	-9	-2.6	7%	8%	-1.5%
NC(=O)C1=C[C@@H](C2CCCCC2)C[C@@H](OCc2ccc(CO)cc2)O1	.	0%	.	.	.	5%	-0.5%

# New compounds follow:
SMILES	TRPV1 potentiator	gsp antagonist	CtBP-E1A inh	Menin MLL FP FL	Sfp PPTase inh	gsp agonist	ClpP mod
COc1ccc(N2CCN(C(=O)c3cc(=O)c4cc(C)cc(C)c4o3)CC2)cc1	-2	-17%	5	-13	-8%	-39%[inhibitor]	.
CCCn1c(SCC(=O)NC2CCCC2)nc2c1c(=O)n(C)c(=O)n2C	-6	8%	-1	-2.0	3%	?	1.6%
COc1ccc(COC(=O)c2c(C)nn(-c3ccccc3)c2Cl)cc1	-1	-3%	46	-0.2	-15%	18%	-1.1%
OC(CNCCc1ccc(Cl)cc1)COc1cc(Cl)ccc1Cl (centres undefined)	1	7%	3	-1.7	?	-25%	0.1%
O=C1C=CC(=O)N1c1ccccc1N1C(=O)C=CC1=O	.	?	-23	.	.	-10%	.
CCCCn1c(N)c(NCC)c(=O)[nH]c1=O	-1	0%	1	-17	-4%	29%	.
CSC(=NCCCN1CCOCC1)NS(=O)(=O)c1cccs1	?	2%&6%	0&-2	-1.8	15%	?	0.4%
O=C1NC2=C(CCc3ccccc32)C(c2ccccc2)N1 (centres undefined)	0	3%	0	-2.0	8%	-3%	?
CC(C)N(C(=O)Cn1cc(S(=O)(=O)CC(=O)N2CCOCC2)c2ccccc21)C(C)C	0	5%	0	.	4%	-4%	0.4%
Cc1ccc(S(=O)(=O)N2CCCC2C(=O)N2CCCCCC2)cc1 (centres undefined)	5	6%	0	-0.8	?	26%	0.8%
O=C(N1CCOCC1)N1CCN(S(=O)(=O)N2CCCCC2)CC1	1	1%[15.4 µM]	10	-0.6	9%	-28%	-0.7%
Cc1oc(-c2ccccc2F)nc1CSCC(=O)NCc1ccc2c(c1)OCO2	5	-22%	1	-5.6	-16%	30%	-2.0%
CN1CCN(c2ccc(NC(=O)COc3ccccc3Cl)cc2)CC1	-6	7%	-2	-0.3	4%	-20%	-1.3%
C/C=C/c1c(F)c(F)c(Oc2ccc(C(=O)O)cc2)c(F)c1F	12	-4%	3	3.0	3%	10%	0.6%
Cc1ccc(-c2nc(CS(=O)CC(=O)NC3CCC(C)CC3)c(C)o2)cc1 (centres undefined)	-13	-2%	-26	1.0	?	10%	-14%

# A section of the results above, as a working copy:
SMILES	TRPV1 potentiator	gsp antagonist	CtBP-E1A inh	Menin MLL FP FL	Sfp PPTase inh	gsp agonist	ClpP mod
O=C(N1CCOCC1)N1CCN(S(=O)(=O)N2CCCCC2)CC1	1	1%[15.4 µM]	10	-0.6	9%	-28%	-0.7%
Cc1oc(-c2ccccc2F)nc1CSCC(=O)NCc1ccc2c(c1)OCO2	5	-22%	1	-5.6	-16%	30%	-2.0%
CN1CCN(c2ccc(NC(=O)COc3ccccc3Cl)cc2)CC1	-6	7%	-2	-0.3	4%	-20%	-1.3%
C/C=C/c1c(F)c(F)c(Oc2ccc(C(=O)O)cc2)c(F)c1F	12	-4%	3	3.0	3%	10%	0.6%

# Next part
SMILES	TRPV1 potentiator	gsp antagonist	CtBP-E1A inh	Menin MLL FP FL	Sfp PPTase inh	gsp agonist	ClpP mod
O=C(Nc1nnc(Cc2ccccc2F)s1)Nc1ccccc1F	14	-2%	9	2.2	-13%	-15%	1.3%
O=C(c1cnccn1)N1CCN(c2ccccc2F)CC1	1	14%	8	2.3	-2%	-11%	1.1%
Cc1ccc(NC(=O)C(Cc2ccccc2)NC(=O)OCc2ccccc2)cc1C (centres undefined)	-7	3%	-12	-1.0	-3%	?	-3.9%
CCc1cccc(NC(=O)C2CCCN2S(=O)(=O)c2cccc3cccnc23)c1 (centres undefined)	28	-17%	-6	.	5%	5%	-4.1%
CC(Oc1ccc(Br)cc1)C(=O)N(Cc1ccccc1)c1c(N)n(Cc2ccccc2)c(=O)[nH]c1=O (centres undefined)	.	.	-1	.	.	-53%[inhibitor]	1.2%
O=C(CSc1n[nH]c(=O)n1C1CC1)NCc1ccccc1	-18	5%	1	4.1	-2%	-8%[15.4 µM]	.
COc1cc(Br)c(Br)cc1N	27	9%	.	1.7	11%	-11%	-0.2%
COC(=O)C1=C(C)NC2=C(C(=O)CCC2)C1c1cn(Cc2ccc(Br)cc2)nc1-c1ccccc1 (centres undefined)	15	-12%	7	2.7	2%	-8%	?
CCCS(=O)(=O)N1CCCC(C(=O)Oc2ccc(OC)cc2)C1 (centres undefined)	14	1%	15	3.2	15%	-25%[15.4 µM]	0.6%
CCN1CCN(C(=O)c2ccc(CS(=O)Cc3ccc(C)cc3)o2)CC1 (centres undefined)	-9	3%	-2	-0.2	14%	3%	-0.9%
CC(C)(C)c1ccc(/C=C2\Oc3cc(O)ccc3C2=O)cc1	3	-14%	-17	?	3%	28%	-3.7%
O=C(Nc1ncc(Cl)cc1Cl)c1c(F)cccc1Cl	-4	8%	-9	1.5	7%	-4%[15.4 µM]	-0.8%
C#CCOC(=O)/C(=C/C=C/c1ccccc1)NC(=O)c1ccccc1	-8	-10%	6	5.4	6%	-50%[inhibitor]	-0.3%
